VDR inh: vitamin D3 receptor (human) inhibition; VDR-SRC2-3 peptide fluorescence polarization, 2 h; Potency, µM, without a hit: max response, negative = inhibition, usual class: inhibitors; actives 0.93% (n = 400,000); AID 504847; active = well fitted inhibition curve with a large enough effect; inconclusive = small, poorly fitted or top-dose-only effect, or another doubt; inactive = no such curve, though single readings can be large or run the other way; also: series mostly up to about 120 µM
Target sequence (P11473 whole entry, looked up): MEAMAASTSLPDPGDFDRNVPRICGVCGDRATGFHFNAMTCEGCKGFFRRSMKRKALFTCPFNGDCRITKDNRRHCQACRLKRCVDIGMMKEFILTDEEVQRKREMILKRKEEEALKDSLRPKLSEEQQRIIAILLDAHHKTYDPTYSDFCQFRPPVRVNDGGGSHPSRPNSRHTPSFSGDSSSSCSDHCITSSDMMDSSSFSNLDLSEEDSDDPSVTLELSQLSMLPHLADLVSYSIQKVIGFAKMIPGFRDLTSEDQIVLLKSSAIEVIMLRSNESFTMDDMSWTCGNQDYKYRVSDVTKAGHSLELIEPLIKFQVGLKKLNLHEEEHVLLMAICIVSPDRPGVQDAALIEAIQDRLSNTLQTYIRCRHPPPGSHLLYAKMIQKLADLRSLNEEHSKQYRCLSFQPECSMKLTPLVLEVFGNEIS
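FP read-out; VDR + SRC2-3 coactivator peptide; 23 nl compound by pintool; 2 h RT incubation; reagents held at 4 deg C, protected from light.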
* hit, by the source's call; ? = inconclusive; & = joins results of further samples; [ ] = remark or other dose. % is scaled to controls: 0 for no effect and ±100 for the full control effect; potency is read from the fitted curve at half-maximal effect. Some of the compounds tested; the hit share may differ from the screen's.

SMILES	VDR inh
CC1CC(Nc2ccccc2N)=CC(=O)O1 (stereo unspecified)	-4%
O=C(Nc1ccccc1)c1cn(-c2ccccc2)nc1-c1ccccc1	10%
CC1=C(c2ccc(C)c(C)c2)S(=O)(=O)N=C1N1CCC(C(=O)NCCc2ccco2)CC1	-2%
COc1ccc(/C=N/NC(=O)c2ccccc2Cl)cc1CSc1nc2ccccc2s1	36%[activator]
CCc1c(C)nc2ncnn2c1N1CCCC(C(=O)NCc2ccco2)C1 (stereo unspecified)	-5%
CCn1cc(C(=O)NCC(OC)OC)c(=O)c2cc(S(=O)(=O)N(C)C3CCCCC3)ccc21	-16%
Cc1ccc(OCCC(=O)OCc2csc(CC(=O)Nc3ccccc3C)n2)cc1	3%
Cc1cc([N+](=O)[O-])ccc1NC(=S)NC1CCCC1	9%
Cc1ccc(-c2c(CN3CCN(c4cccc(C)c4)C(C)C3)csc2C)cc1 (stereo unspecified)	13%
Nc1ccccc1NC1=CC(=O)CC(c2ccco2)C1 (stereo unspecified)	4%
Cc1cc(C)cc(N(CCC(=O)Nc2nnc(C3CC3)s2)S(=O)(=O)c2ccc(Cl)cc2)c1	6%
Cc1[nH]nc(-c2ccc(OCc3cnn(-c4ccccc4)c3)cc2O)c1Oc1ccc(F)cc1	8%
CCOC(=O)C1C(c2cc(OC)c(OC)c(OC)c2)NC(=S)NC1(O)C(F)(F)F (stereo unspecified)	-16%
CC(C)C1C(c2ccccc2)N(C)C(c2ccccc2)CC1(O)c1ccccc1 (stereo unspecified)	-3%
CCc1nc(Nc2ccc(O)cc2)c2oc3ccccc3c2n1	-11%
CC(C)COP(=O)(c1ccc(N(C)C)cc1)C(Nc1ccccc1)c1cccnc1 (stereo unspecified)	-2%
CC1CCN(C(=O)COC(=O)c2ccc(Cl)nc2)CC1	6%
O=C(NCCc1ccccc1)c1ccc(NC(=O)C2CCCC2)cc1	0%
Cc1cc(Cl)ccc1OC(C)C(=O)OCC(=O)Nc1ccc2[nH]c(=O)[nH]c2c1 (stereo unspecified)	3%
COc1cccc(-c2nc(CS(=O)CC(=O)NCc3ccc(F)cc3)c(C)o2)c1 (stereo unspecified)	-7%
CCCCCn1c(=O)[nH]c2cc(C(=O)O)ccc2c1=O	8%
CC(=O)N1CC(=O)N(OCc2ccccc2)C1c1ccc(Cl)cc1Cl (stereo unspecified)	-6%
CCOc1cccc(-c2c(C(=O)N/N=C/c3ccc(C)o3)nnn2-c2nonc2N)c1	?
O=C(NCc1ccco1)C1CC(O)CN1C(=O)Nc1ccccc1 (stereo unspecified)	-25%
COc1ccc(N2CC(C(=O)Nc3ccccc3-c3nc(-c4ccc(C)cc4)no3)CC2=O)cc1 (stereo unspecified)	-5%

Next structures.
SMILES	VDR inh
O=C(NCCN1CCOCC1)/C(=C/c1ccccc1)NC(=O)c1ccccc1	?
O=C(NCc1ccc(F)cc1)c1cc(-c2ccncc2)nc2ccccc12	-5%
Cc1ccc(-n2c(SCC(=O)NCC3CCCO3)nc3ccccc3c2=O)cc1 (stereo unspecified)	-1%
O=C(O)CCn1c(SCc2ccccc2)nc2ccccc21	-9%
O=c1[nH]c2cc(Cl)cc(Cl)c2[nH]c1=O	-18%
O=C(C(=O)N1CCN(c2cccc(Cl)c2)CC1)N1CCCCC1	2%
Cc1ccc(C)c(N2CCN(CCCNC(=O)c3ccc4nc(N5CCC(C)CC5)sc4c3)CC2)c1	12%
CN(CCc1ccccc1)C1CCCN(S(=O)(=O)N(C)C)C1 (stereo unspecified)	-9%
O=C(O)C1CSC2(c3ccc(Br)cc3)CCC(=O)N12 (stereo unspecified)	4%
CCC1(c2ccc(O)cc2)NC(=O)N(C)C1=O (stereo unspecified)	16%
CCCCc1nnc(NC(=O)Cc2ccc(OC)c(S(=O)(=O)N3CCOCC3)c2)s1	-16%
O=C(COC(=O)Cc1ccc(F)cc1)NCCc1ccccc1	7%
COc1ccc(CN([C@H](C)CO)S(=O)(=O)N(Cc2ccccc2)[C@H](CO)C(C)C)cc1	-16%
CC(C)(C)n1nc2c(c1NC(=O)c1cc([N+](=O)[O-])ccc1Cl)CS(=O)(=O)C2	-6%
CNc1ccccc(-c2ccc3cc4c(cc3n2)OCO4)c1=O	-2%
Cc1ccc(-c2cc(C(F)F)n3ncc(C(=O)NN4CCCCC4)c3n2)cc1	-14%
COc1ccccc1-c1oc2ccccc2c1C#CC1(O)CCCCC1	8%
CCCOc1ccccc1Cn1c(=O)oc2ccc(C)cc21	-7%
CCN(c1ccccc1)S(=O)(=O)c1ccc(OC)c(NC(=O)Cn2cnc3c2c(=O)n(C)c(=O)n3C)c1	-1%
CC1N(C)c2cc(NC(=O)c3cccs3)c(P(=O)(Nc3ccc([N+](=O)[O-])cc3)N3CCOCC3)cc2C1(C)C (stereo unspecified)	-5%
CC(C)CC(=O)Nc1ccc(S(=O)(=O)N2CCCC2)cc1	17%
COC(=O)c1ccc(NC(=O)Cn2nc(C(=O)Nc3ccc(C)cc3)ccc2=O)cc1	20%&-3%
Cc1ccc(C)c(NC(=O)CN2C(=O)NC(C)(c3ccc4c(c3)OCCO4)C2=O)c1 (stereo unspecified)	1%
COc1cc(C)ccc1OCC(=O)Nc1nnc(C2CC2)s1	-21%
Cc1cccc(NC(=O)Cn2nc3c4ccccc4n(Cc4ccccc4)cc-3c2=O)c1	5%

Going on with the list.
SMILES	VDR inh
CC(C)CCNC(=O)CN(CC1CCCO1)C(=O)CCC(=O)Nc1nccs1 (stereo unspecified)	-5%
O=C(C=Cc1ccccc1)NCCNC(=O)C=Cc1ccccc1	-17%
Cc1ccc(-c2csc(NS(=O)(=O)c3cccc(F)c3)n2)o1	?
C=C1CCC[C@]2(C)C[C@H]3OC(=O)C(CN(C)CC(OC)OC)[C@H]3CC12 (stereo partly specified)	-20%
O=C(NNC(=S)NCc1ccc(Cl)cc1)c1cccnc1	3%
O=C(COc1ccccc1)Nc1ccc([N+](=O)[O-])cc1	-3%
COc1ccc(C(=O)Nc2ccc(N3CCCCCC3)cc2)cc1S(=O)(=O)N1CCOCC1	-15%
CCn1cc(C(=O)O)c(=O)c2cc(F)c(N3CCN(C(=S)NC(=O)c4ccc(F)c(F)c4)CC3)cc21	11%
COc1cccc(NC(=O)Nc2ccc(CC(=O)O)cc2)c1	8%
COc1ccc(O)c(-c2cn[nH]c2-c2cccs2)c1	-1%
Cc1ccc(Nc2c(O)nc[nH]c2=O)cc1C	-8%
CCOC(=O)c1ccc(NC(=O)C(CC)Sc2nncn3c2cc2oc(C)cc23)cc1 (stereo unspecified)	4%
O=C(Nc1ccc2c(c1)OCCO2)C1CCCN(S(=O)(=O)c2cccnc2)C1 (stereo unspecified)	-14%
Cc1ccc(C(=O)NCCC(=O)N2CCC3(CC2)NCCc2[nH]cnc23)cc1C	-4%
Oc1c(Br)cc(CNC2CCCCC2)cc1Br	0%
COc1ccc(-n2cc(C#N)c(=O)[nH]c2=O)cc1	8%
O=C(CSc1nc(O)c(C2CCCCC2)c(=O)[nH]1)Nc1ccc(Cl)cc1	-8%
Cc1ccnc(NC(=O)CNC(=O)c2ccc3ccccc3c2)c1	-4%
Cn1c(NC(=O)c2cc(-c3ccc4c(c3)OCO4)nc3ccccc23)cc(=O)n(C)c1=O	15%
COC(=O)C1=C[C@@H](C(=O)OC)C2C3=C(C(=O)C24CCCCC4)[C@H](C)n2c(=O)n(C)c(=O)n2[C@@H]3C1 (stereo partly specified)	-16%&-3%
C/C(=N/NC(=O)c1sc(=S)n(C)c1C)c1ccccc1	19%
CCN1C(=O)[C@H]2[C@@H](c3ccc(-c4ccc(C(C)=O)cc4)c(OC)c3)N[C@@](Cc3ccccc3)(C(=O)OC)[C@H]2C1=O	-20%
Cc1ccc(NC(=O)CN(C)C(=O)/C=C/c2ccc3c(c2)OCO3)cc1	9%
Cc1cc(C)nc(SCC(=O)N2CCOCC2)n1	-4%
COc1cccc(Cn2cnc3c([N+](=O)[O-])c(C)c(C)cc32)c1	-5%

Later entries.
SMILES	VDR inh
COc1ccccc1OCCSc1nc2ccccc2n1CC(=O)N1CCOCC1	15%
CCC(C)(C)NC(=O)C(c1cccc(OC)c1OC)N(C(=O)CCC(=O)Nc1cc(C)on1)C(C)C (stereo unspecified)	?
O=C(CSc1nnc(SCc2ccc(Cl)cc2)s1)N1CCN(C(=O)c2ccco2)CC1	20%
Cc1ccccc1Nc1nc(N2CCOCC2)nc(N2CCOCC2)n1	-16%
CC1C(O)=C(c2nc3ccccc3[nH]2)C(=N)N1c1ccccc1 (stereo unspecified)	0%
O=C1C(C=NCCCN2CCOCC2)=C(O)c2ccccc21	-26%
C#CCNC(=O)C1=C[C@H](c2ccc3c(c2)OCO3)C[C@H](OCCCCO)O1	-7%
O=C(CCN1CCN(c2ccccc2)CC1)NNC(=S)Nc1ccccc1	-7%
C(=N\Nc1ccc2nncn2n1)/c1ccco1	-6%
Cc1cc(C(=O)OCC(=O)N(C)C2CCS(=O)(=O)C2)c(C)n1-c1ccccc1 (stereo unspecified)	1%
CC[C@]1(c2ccccc2)NC(=O)N(C)C1=O	-3%
C=C(C)C(=O)c1cccs1	9%
CC(C)NC(=O)/C(C#N)=C/c1cccc(NC(=O)c2ccccc2Cl)c1	?
Cc1cccn2c(=O)c3cc(C(=O)NC(C)c4ccccc4)c(=N)n(CCOCCO)c3nc12 (stereo unspecified)	4%
CCN(CC)CCNC(=O)c1cccc(NC(=O)C(=O)c2ccccc2NC(C)=O)c1	2%
CC1(C)Cc2c(cnn2-c2cccc(F)c2)C(NC(=O)c2csnn2)C1 (stereo unspecified)	-17%
COc1ccc(OC)c(S(=O)(=O)NCc2cccnc2)c1	-20%
Cc1ccc(-c2cc(C(=O)Nc3nn[nH]n3)c3ccccc3n2)c(C)c1	-19%
COc1cccc(CNC(=O)c2cc3c(-c4ccccc4F)nn(C)c3s2)c1	-5%
CCN(CC)S(=O)(=O)c1ccc2c(c1)nc(SCn1nnc3ccccc3c1=O)n2CC	-4%
Cc1ccc(S(=O)(=O)N2CCC(C(=O)NCCCN3CCCC3=O)CC2)cc1	-7%
COc1ccc(CC(=O)OCC(=O)Nc2ccc(Cl)cn2)cc1	-5%
CCOc1ccc(-c2cccc(NC(=O)c3cccs3)c2)nn1	12%
COc1ccc(S(N)(=O)=O)cc1C(=O)OCC(=O)N1CC(=O)Nc2ccccc21	-3%
Cc1ccc(C(=O)Nc2ccc3c(c2)CCC3)o1	8%

Part of the list above in order of length of the SMILES, ascending.
SMILES	VDR inh
COc1ccc(CC(=O)OCC(=O)Nc2ccc(Cl)cn2)cc1	-5%
CC(C)NC(=O)/C(C#N)=C/c1cccc(NC(=O)c2ccccc2Cl)c1	?
CCN(CC)CCNC(=O)c1cccc(NC(=O)C(=O)c2ccccc2NC(C)=O)c1	2%
CCC(C)(C)NC(=O)C(c1cccc(OC)c1OC)N(C(=O)CCC(=O)Nc1cc(C)on1)C(C)C (stereo unspecified)	?

The listing picks up; the 4 compounds before the break are reprinted first.
SMILES	VDR inh
COc1ccc(CC(=O)OCC(=O)Nc2ccc(Cl)cn2)cc1	-5%
CCOc1ccc(-c2cccc(NC(=O)c3cccs3)c2)nn1	12%
COc1ccc(S(N)(=O)=O)cc1C(=O)OCC(=O)N1CC(=O)Nc2ccccc21	-3%
Cc1ccc(C(=O)Nc2ccc3c(c2)CCC3)o1	8%
O=C(NCCN1CCOCC1)c1cc(-c2ccc(F)cc2)nc2ccccc12	?
CC/C(=N\NC(=O)c1ccc(Br)cc1)c1ccccc1	11%
CCOc1ccccc1CNC(=O)CCn1c(=O)c2cccn2c2ccc(F)cc21	11%
CNC(=O)/C(=C\c1ccco1)NC(=O)c1ccco1	-13%
COc1ccc(-c2csc(NC(=O)c3ccccc3NS(=O)(=O)c3ccc(C)cc3)n2)cc1	4%
CCNc1nnc(SCC(=O)NC2CCCCCC2)s1	-29%
C[C@H]1CN([C@@H](C)CO)C(=O)c2cc(NC(=O)Nc3cccc4ccccc34)ccc2O[C@@H]1CN(C)Cc1ccc(-c2ccccc2)cc1	-17%
CC1=C(C(=O)Nc2ccccn2)C(c2ccc3c(c2)OCO3)C2=C(CC(C)(C)CC2=O)N1 (stereo unspecified)	14%
COc1ccc(C(=O)C(Cc2cc(C(C)=O)ccc2OC)N2CCCC2)cc1 (stereo unspecified)	7%
COc1cccc(-c2cc(C(=O)N3CCN(C(c4ccccc4)c4ccccc4)CC3)no2)c1	12%
CC(C)(C)n1nc2c(c1NC(=O)Cc1ccc([N+](=O)[O-])cc1)CS(=O)(=O)C2	4%
Cc1ccn2c(Nc3ccc4c(c3)OCO4)c(-c3ccccn3)nc2c1	-7%
Cn1c(=O)cc(OCCCC(=O)NCCC2=CCCCC2)c2ccccc21	3%
O=C(CN1CCCCCCC1)N/N=C/c1ccccc1F	5%
COc1cccc(CNCCSc2nnnn2C)c1OCc1ccc(Cl)cc1	1%
O=C(O)C1CC=CCC1C(=O)NCc1ccc2c(c1)OCO2 (stereo unspecified)	22%
COc1ccccc1C(c1nnnn1CCc1ccccc1)N1CCCCCC1 (stereo unspecified)	8%
COCC(C)NC(=O)c1cc(-c2ccccc2OC)on1 (stereo unspecified)	-13%
COc1ccc(Cl)cc1S(=O)(=O)N1CCCC(C(=O)N2CCOCC2)C1 (stereo unspecified)	-3%

An excerpt from above in order of the VDR inh value, falling:
SMILES	VDR inh
COc1cccc(NC(=O)Nc2ccc(CC(=O)O)cc2)c1	8%
CCN(CC)CCNC(=O)c1cccc(NC(=O)C(=O)c2ccccc2NC(C)=O)c1	2%
O=c1[nH]c2cc(Cl)cc(Cl)c2[nH]c1=O	-18%

Source: PubChem BioAssay
